TRPV1 PAM = enhances activation of the human vanilloid receptor TRPV1; AID 540277; 320,000 tested, 0.02% active; TRPV1-expressing cells, Fluo-8 calcium influx, capsaicin EC20 potentiation; host cell line not named in the record; control for the full effect not named in the record; potentiation, % at 8.33 µM; Q8NER1; active means potentiation above 80%; inconclusive means 30% to 80%; inactive means below 30%; further: 0% is about no effect
Target sequence (Q8NER1 whole entry, looked up): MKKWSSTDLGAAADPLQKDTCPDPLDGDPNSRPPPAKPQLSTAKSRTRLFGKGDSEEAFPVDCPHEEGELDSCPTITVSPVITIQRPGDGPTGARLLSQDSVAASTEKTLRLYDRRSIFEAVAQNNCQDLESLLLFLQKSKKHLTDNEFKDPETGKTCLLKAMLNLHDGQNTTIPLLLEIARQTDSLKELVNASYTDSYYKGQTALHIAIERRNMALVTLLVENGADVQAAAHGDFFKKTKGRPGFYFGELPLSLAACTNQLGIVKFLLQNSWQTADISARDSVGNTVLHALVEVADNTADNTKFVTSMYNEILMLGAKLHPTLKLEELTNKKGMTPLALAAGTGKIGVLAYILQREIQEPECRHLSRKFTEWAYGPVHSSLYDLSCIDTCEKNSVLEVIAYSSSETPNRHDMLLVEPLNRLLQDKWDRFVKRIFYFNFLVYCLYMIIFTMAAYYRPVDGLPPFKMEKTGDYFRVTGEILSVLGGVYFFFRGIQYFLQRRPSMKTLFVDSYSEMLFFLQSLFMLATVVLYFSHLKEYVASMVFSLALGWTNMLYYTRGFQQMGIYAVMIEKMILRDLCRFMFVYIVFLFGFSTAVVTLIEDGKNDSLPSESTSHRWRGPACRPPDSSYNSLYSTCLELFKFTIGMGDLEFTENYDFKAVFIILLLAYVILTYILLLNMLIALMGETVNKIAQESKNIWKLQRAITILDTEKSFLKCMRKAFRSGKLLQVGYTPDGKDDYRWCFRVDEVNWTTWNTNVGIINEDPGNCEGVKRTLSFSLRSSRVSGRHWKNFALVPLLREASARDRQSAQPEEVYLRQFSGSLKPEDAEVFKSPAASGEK
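Fluo-8 calcium influx in TRPV1-expressing cells, kinetic read (ex 480/em 520 nm). Compound added and read 3 min for agonist activity, followed by capsaicin at EC20 final and 2 min further read for enhancement.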
gsp agonist = activates gsp, the McCune-Albright syndrome mutation; AID 624287; gsp mutant cells, cAMP HTRF, 30 min; control for the full effect not named in the record; 340,000 tested, 0.13% active; Potency, µM (top dose mostly 76.9 µM), inactives show at the top dose activation (cAMP increase), most hits filed as activators; active = well fitted activation curve with a large enough effect; inconclusive = small, poorly fitted or top-dose-only effect, or another doubt; inactive = no such curve, though single readings can be large or run the other way; cell line not stated here;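 further: phosphodiesterase inhibitor Ro 20-1724 added with compounds to block cAMP breakdown; potency means the concentration at half of the fitted maximal effect; nearly all actives have a fitted effect of over 60% in size; about a fifth of the inactives were tested at one dose only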
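Cells in DMEM/10% FBS with G418 were pretreated with compounds in DMSO plus […] (300 uM stock) for 30 min at 37C. cAMP was measured by HTRF (cAMP-d2 plus anti-cAMP antibody-K) after 30 min at room temperature.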
Sfp PPTase inh = inhibitors of Bacillus subtilis Sfp phosphopantetheinyl transferase | Q9F4F7 | Biochemical Sfp PPTase activity, qHTS | Potency, µM, for inactives: max response, negative = inhibition, most hits filed as inhibitors | 310,000 tested, 3.5% active | AID 1490; active means well fitted inhibition curve with a large enough effect; inconclusive means small, poorly fitted or top-dose-only effect, or another doubt; inactive means no such curve, though single readings can be large or run the other way;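 further: the enzyme is Sfp with the accession as filed and its product quenches rhodamine fluorescence; potency means the concentration at half of the fitted maximal effect; 0% = enzyme reaction without inhibitor and -100% = no enzyme wells; top concentration of the series not given in the record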
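Fluorescence-quenching assay: 15 nM Sfp-PPTase preincubated 15 min at room temperature with compound, then 5 uM rhodamine-CoA and 12.5 uM BHQ-2-labelled YbbR peptide added. Fluorescence (ex 525/em 598 nm) read at start and after 30 min; difference gives rate.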
CtBP-E1A inh = inhibitors of CtBP/E1A interaction. AlphaScreen GST-E1A/His-CtBP binding, 1536-well; stronger effect = lower value; control for the full effect not named in the record. activity change, % (concentration not given with the values). 340,000 tested, 0.49% active. AID 651724; in the data active means activity change below about -65%; inconclusive means about -30% to -65%; inactive means above about -30%; further: on the % scale 0 is the no-effect control and ±100 the full control effect
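Homogeneous bead-based format: GST-tagged E1A captured on glutathione donor beads, His-tagged CtBP on nickel acceptor beads; compounds precede bead addition by 2 h at 37 °C.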
Menin-MLL FL inh = inhibitors of human menin-MLL interaction, wild-type MLL peptide; Fluorescence polarization, fluorescein-MLL peptide displacement from menin; FP activity change, % at 61.4 µM; 290,000 tested, under 10 active; AID 1766; inconclusive = falling polarisation curve, or a change in total fluorescence; inactive = total fluorescence flat and polarisation flat or rising; no compound was filed as active; the % refers to the polarisation; negative = inhibition;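 further: % of control where 0% means no effect; inhibitors lower the polarisation; unlabelled MLL peptide was the positive control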
ClpP mod = qHTS Assay for Activators of ClpP. ATP-dependent Clp protease proteolytic subunit (Bacillus subtilis (strain 168)), P80244. purified B. subtilis ClpP, FRET peptide cleavage, 20 min. Potency, µM (series often up to 57.5 µM), for inactives: at the top dose activity change, negative = active. 340,000 tested, 1.9% active. AID 651965, 2013; active = well fitted falling curve with a large enough effect; inconclusive = small, poorly fitted or top-dose-only effect; inactive = no such curve, though single readings can be large or run the other way; further: potency means the concentration at half of the fitted maximal effect; the source files actives as falling curves though it sought activators and does not explain the sign; nearly all actives have a fitted effect of over 65% in size; many hits overshoot -100%
Target sequence (P80244 whole entry, looked up): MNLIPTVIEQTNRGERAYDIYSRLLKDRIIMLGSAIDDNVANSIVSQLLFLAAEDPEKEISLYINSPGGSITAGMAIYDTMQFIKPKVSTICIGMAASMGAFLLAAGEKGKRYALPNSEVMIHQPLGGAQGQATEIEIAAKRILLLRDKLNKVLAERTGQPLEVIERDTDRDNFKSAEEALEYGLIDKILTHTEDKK
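Buffer: 100 mM Tris/HCl pH8, 100 mM KCl, 0.05% low protease BSA, 2.5% glycerol, 0.01% Tween-20. ClpP 10 microg/mL final; 20 min RT; delta FRET normalized to ADEP and DMSO controls.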
gsp antagonist = antagonizes gsp, the McCune-Albright syndrome mutation; gsp-mutant cells, cAMP HTRF, 30 min; control for the full effect not named in the record; Potency, µM (doses to about 76.9 µM), inactives show at the top dose activity change, negative = inhibition, most hits filed as inhibitors; 340,000 tested, 0.4% active; active = falling curve of any shape with a large fitted effect; inconclusive = falling curve, mostly with a smaller effect; inactive = flat or rising curve; cell line not stated here;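 further: intracellular cAMP measured with PDE inhibitor Ro 20-1724 present during compound exposure; potency means the concentration at half of the fitted maximal effect; on the % scale 0 is the no-effect control and ±100 the full control effect; nearly all actives have a fitted effect of over 65% in size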
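Cells in G418 medium, seeded 16-24 h, 37C; buffer exchange to DPBS + 1 mM CaCl2, 0.5 mM MgCl2, 0.05% BSA; cpds in DMSO + […] (300 uM stock), 30 min 37C; HTRF cAMP detection.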
* = called active by the depositor; ? = inconclusive; nt = no result given; & = joins results of further samples; [ ] = dose if it differs, or a comment.

SMILES | TRPV1 PAM | gsp agonist | Sfp PPTase inh | CtBP-E1A inh | Menin-MLL FL inh | ClpP mod | gsp antagonist
CCC1CCCCN1C(=O)c1cc(-c2ccc(Cl)c(Cl)c2)on1 (configuration not stated) | -5 | 9% | ? | 13 | 2.0 | -1.2% | -3%
CN(Cc1cccc(C(F)(F)F)c1)Cc1nc(-c2cnccn2)no1 | -6 | 7% | -4% | 0 | -3.9 | nt | 10%
CCOc1ccc(NS(=O)(=O)c2ccc(N)cc2)cc1 | 4 | -10% | 17% | -4 | 5.2 | ? | -3%
O=C(NCc1ccc(Cl)cc1)c1cccc2c1C(=O)N(CC1CCCO1)C2 (configuration not stated) | 5 | -25% | -10% | 3 | -0.5 | 0.1% | 1%
O=C1C=CC(=O)N1c1ccc2ccccc2c1 | nt | -23% | nt | 5 | nt | nt | 5%
COc1ccc(Cc2nnc(NC(=O)c3ccco3)s2)cc1OC | 2 | -21% | 9% | 7 | -4.7 | -0.6% | 5%
CCOc1ccccc1N(CC(=O)NC1CCCC1)S(=O)(=O)c1ccc(C)cc1 | -28 | -8%[15.4 µM] | 1% | 2 | 0.2 | nt | nt
CCCn1c(N)c(C(=O)CSc2ncn[nH]2)c(=O)n(C)c1=O | 6 | ? | nt | -3 | nt | 3.2% | -6%
Cc1cnc(NC(=O)c2ccc(-c3ccc([N+](=O)[O-])cc3)o2)s1 | -7 | 7% | nt | nt | nt | 0.3% | -8%
NC(=O)Nc1ccc(Nc2ccccc2)cc1 | 2 | -22% | -20% | 7 | 2.3 | -5.6% | -14%
CC(=O)CC1(O)C(=O)N(CN2CCN(c3ccccc3)CC2)c2ccccc21 (configuration not stated) | -7 | -26% | 7% | 6 | -0.8 | -1.2% | 7%
CCN(CC)C(=O)CSc1nnc(-c2cc(OC)cc(OC)c2)o1 | -24 | 17% | 9% | 0 | -1.4 | -2.4% | -3%
O=C1c2ccccc2C(=O)c2c1ccc1c(=O)n(-c3ccccc3)[nH]c21 | -4 | 12%[15.4 µM] | 2% | 4 | 4.8 | -0.3% | -1%
CCN(C(=O)COC(=O)/C=C/c1c(C)nn(Cc2ccc(C)cc2)c1C)C1CCS(=O)(=O)C1 (configuration not stated) | -2 | 21%[15.4 µM] | 21% | -12 | -0.5 | nt | nt
COc1cccc(-c2nc(NCC3CCCO3)c3ccccc3n2)c1O (configuration not stated) | -8 | 3%[15.4 µM] | 12% | -26 | 3.2 | -0.2% | -20%
Cc1ccc(NC(=O)C(C)NS(=O)(=O)c2ccc(F)cc2)cc1C (configuration not stated) | 0 | 1% | 22% | -2 | -0.4 | nt | -4%
COc1cccc(C2=NNC(=NCc3ccccc3)SC2)c1 | -6 | -41%[inhibitor] | -21% | -21 | 4.8 | -4.0% | -7%
COCCCNC(=O)/C=C1\Sc2ccccc2N(Cc2ccccc2F)C1=O | 14 | -36% | 9% | 5 | -0.8 | -4.1% | 3%
COC(=O)C1=C(C)N2C(=O)CSC2=NC1c1ccc2c(c1)OCO2 (configuration not stated) | ? | 0% | 1% | -11 | 2.3 | -2.5% | 9%
O=C(Nc1ccccc1NC(=O)c1c(F)cccc1F)c1c(F)cccc1F | 4 | -14%[15.4 µM] | 6% | -10 | -4.7 | 0.5% | -10%

Exported with two lines to a compound: part of the list above.
Below each compound: TRPV1 PAM	gsp agonist	Sfp PPTase inh	CtBP-E1A inh	Menin-MLL FL inh	ClpP mod	gsp antagonist
CCOc1ccccc1N(CC(=O)NC1CCCC1)S(=O)(=O)c1ccc(C)cc1
 : -28	-8%[15.4 µM]	1%	2	0.2	nt	nt
CCCn1c(N)c(C(=O)CSc2ncn[nH]2)c(=O)n(C)c1=O
 : 6	?	nt	-3	nt	3.2%	-6%
Cc1cnc(NC(=O)c2ccc(-c3ccc([N+](=O)[O-])cc3)o2)s1
 : -7	7%	nt	nt	nt	0.3%	-8%
NC(=O)Nc1ccc(Nc2ccccc2)cc1
 : 2	-22%	-20%	7	2.3	-5.6%	-14%
CC(=O)CC1(O)C(=O)N(CN2CCN(c3ccccc3)CC2)c2ccccc21 (configuration not stated)
 : -7	-26%	7%	6	-0.8	-1.2%	7%
CCN(CC)C(=O)CSc1nnc(-c2cc(OC)cc(OC)c2)o1
 : -24	17%	9%	0	-1.4	-2.4%	-3%
O=C1c2ccccc2C(=O)c2c1ccc1c(=O)n(-c3ccccc3)[nH]c21
 : -4	12%[15.4 µM]	2%	4	4.8	-0.3%	-1%
CCN(C(=O)COC(=O)/C=C/c1c(C)nn(Cc2ccc(C)cc2)c1C)C1CCS(=O)(=O)C1 (configuration not stated)
 : -2	21%[15.4 µM]	21%	-12	-0.5	nt	nt
COc1cccc(-c2nc(NCC3CCCO3)c3ccccc3n2)c1O (configuration not stated)
 : -8	3%[15.4 µM]	12%	-26	3.2	-0.2%	-20%
Cc1ccc(NC(=O)C(C)NS(=O)(=O)c2ccc(F)cc2)cc1C (configuration not stated)
 : 0	1%	22%	-2	-0.4	nt	-4%
COc1cccc(C2=NNC(=NCc3ccccc3)SC2)c1
 : -6	-41%[inhibitor]	-21%	-21	4.8	-4.0%	-7%

(listing goes on)
SMILES | TRPV1 PAM | gsp agonist | Sfp PPTase inh | CtBP-E1A inh | Menin-MLL FL inh | ClpP mod | gsp antagonist
N#C/C(=C/c1ccc([N+](=O)[O-])cc1)C(=O)Nc1ccccc1O | 5 | -1%[15.4 µM] | 1% | -19 | 6.6 | -2.7% | 6%
Fc1ccccc1-c1ccc(/C=N/Nc2nc3ccccc3[nH]2)o1 | -11 | -27% | -28% | nt | 3.9 | -29% | 40µM*
Nc1nc(-c2ccc(Cl)cc2)c(S(=O)(=O)c2ccccc2)s1 | 12 | -60%[inhibitor] | 9% | -21 | -1.5 | -2.7% | -6%
O=C(NCCN1CCOCC1)c1c(O)nc2ccccn2c1=O | -3 | 15% | 25% | nt | 0.7 | -29% | 3%
COc1cc(C)nc(Oc2ccc(OCc3ccccc3)nn2)n1 | -5 | -3% | 7% | 8 | 3.3 | -1.3% | 13%
COc1ccc(S(=O)(=O)N2CCN(C(=O)c3cc(-c4ccc(Br)cc4)n[nH]3)CC2)cc1OC | 9 | -7% | 10% | 1 | -1.3 | -1.0%&-6.5% | ?
Cc1ccc(NC(=O)Cn2c([N+](=O)[O-])cnc2C)cc1 | 9 | 6%[15.4 µM] | 12% | 5 | 2.0 | ? | -2%
Cc1ccc2[nH]c(=O)c(COC(=O)C3CCCO3)cc2c1 (configuration not stated) | 18 | -10% | 10% | -6 | -1.3 | ? | -7%[15.4 µM]
COc1ccc(CCNC(=O)COc2ccc(S(=O)(=O)NC(C)C)cc2Cl)cc1OC | -13 | -19% | 6% | 15 | -3.8 | -4.8% | -1%
Cc1nc(-c2cc(C#N)c(Sc3ccc(Cl)cc3Cl)nc2C)cs1 | ? | -5%[15.4 µM] | ? | 13 | 0.8 | nt | -10%
COC(=O)C1=C(C)NC(C)=C(C(=O)OC)C1/C=C/c1ccccc1 | 5 | -20% | 4% | 21 | 3.4 | -21% | -3%
NC(=O)C1CCN(C(=O)c2cccc(S(=O)(=O)N3CCCC3)c2)CC1 | 7 | -4% | nt | 17 | nt | 0.8% | 14%
CCCc1nnc2c(N(C)S(=O)(=O)c3ccccc3)nc3ccccc3n12 | -20 | ? | 7% | 4 | nt | -8.2% | 0%
CCn1nc(NC(=O)c2ccccn2)c2cc3cc(C)ccc3nc21 | -4 | ? | -21% | 7 | -2.5 | -26% | 35µM*
Cc1ccc(-c2nnc(-n3ncc(C#N)c3N)c3ccccc23)cc1C | 18 | 0%[15.4 µM] | 2% | 2 | 0.4 | nt | 1%
Cc1ccc(OCC(=O)NNC(=O)C(=O)N2CCCC2)c(C)c1 | -1 | 8%[15.4 µM] | 16% | -3 | nt | -1.5% | 5%
CCn1c(CNc2ccc(C)cc2C)nnc1SCC(=O)N1CCCc2ccccc21 | -7 | 30% | -9% | -1 | 0.3 | 1.3% | -6%
Cc1nc2ccccc2c2oc(C(=O)NCCCN3CCCC(C)C3)cc12 (configuration not stated) | -4 | 0% | 13% | -19 | 2.9 | ? | 15%
Cc1ccc(S(=O)(=O)N2CC(C(=O)O)=CC[C@H]2c2ccc3c(c2)OCO3)cc1 | ? | nt | nt | 2 | nt | -6.1% | 2%
CCN1CCN(c2ccc(S(=O)(=O)N3CCCCC3)cc2NC(=O)Cc2ccccc2)CC1 | -1 | 18% | nt | 1 | nt | -2.3% | 1%
COc1ccc(/C=N\NC(=O)CC(=O)Nc2cccc(Cl)c2)cc1OC | -3 | -53%[inhibitor] | ? | 0 | -4.5 | -3.0% | -1%
Cc1ccc(S(=O)(=O)CCC(=O)NC2CCCCC2)cc1 | -3 | 9% | nt | 0 | nt | -1.5% | 15%
O=C(NCCCN1CCOCC1)c1cccnc1 | 8 | -39%[inhibitor] | -8% | 5 | -2.3 | -3.2% | 9%
O=C(NNC(=O)c1cccc2ccccc12)c1ccc(Cl)cc1Cl | nt | -1% | nt | 4 | nt | nt | 10%
COC(=O)c1scc(C)c1N/N=C(\C)c1cc(F)c(Cl)cc1F | 14 | -32%[inhibitor] | -7% | -14 | -1.0 | -0.1% | 9%
COc1ccc(-c2ccc(SC)nn2)cc1 | -29 | -5%[15.4 µM] | 8% | 0 | 0.3 | nt | 8%
CC(CCc1ccccc1)NC(=O)C1CCN(S(=O)(=O)c2ccc(F)cc2)CC1 (configuration not stated) | -19 | -12% | -1% | -3 | nt | -0.6% | -12%
O=C(Nc1ccccc1)N(Cc1ccccc1)CC(O)C(F)(F)F (configuration not stated) | 7 | -22% | 11% | 10 | 1.9 | 28µM* | 3%
CCn1cc(C(=O)N[C@H](C(=O)NCCN2CCOCC2)C(C)C)c(=O)c2cc3c(cc21)OCO3 | 5 | -32%[inhibitor] | 8% | -4 | 0.6 | 3.6% | -13%

Screening data as filed in PubChem.
